# From PubChem
# Polio RdRp inh: poliovirus RNA polymerase inhibition; poliovirus polymerase elongation, fluorescence polarization; hits give low values; % elongation, % (compound at 16.7 µg/mL); P03300; 150,000 compounds, 0.66% hits; in the data active = % elongation below about 90%; note: some results filed as inactive read as strong as hits
# Target sequence (P03300 1749-2209 limits assumed): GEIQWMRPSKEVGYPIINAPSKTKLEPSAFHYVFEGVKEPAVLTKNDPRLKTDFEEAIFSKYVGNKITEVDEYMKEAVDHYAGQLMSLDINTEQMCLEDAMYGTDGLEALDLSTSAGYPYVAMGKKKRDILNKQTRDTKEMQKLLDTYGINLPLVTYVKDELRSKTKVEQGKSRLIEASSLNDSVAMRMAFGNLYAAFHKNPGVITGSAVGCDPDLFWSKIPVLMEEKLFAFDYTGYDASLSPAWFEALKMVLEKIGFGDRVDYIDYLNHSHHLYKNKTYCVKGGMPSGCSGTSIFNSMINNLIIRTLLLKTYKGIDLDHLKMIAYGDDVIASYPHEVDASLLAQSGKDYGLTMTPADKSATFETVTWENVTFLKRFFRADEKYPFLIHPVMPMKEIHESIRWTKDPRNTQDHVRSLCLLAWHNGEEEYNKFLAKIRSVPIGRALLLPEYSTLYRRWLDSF
# MenB inh: blocks the Mycobacterium tuberculosis MenB enzyme; 100,000 compounds, 0.43% hits; MenB enzyme assay, absorbance read-out; some hits fall short of the stated cut; AID 540299; P9WNP5; inhibition, %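 (about 12 µg/mL by stock and volumes)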;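 active = mean of two replicates above 30%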;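 note: 0% = no compound and 100% = wells with inactive enzyme; the first replicate is given; strong numbers were not always called active; inactives centre near -10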
# Target sequence (P9WNP5 whole entry, looked up): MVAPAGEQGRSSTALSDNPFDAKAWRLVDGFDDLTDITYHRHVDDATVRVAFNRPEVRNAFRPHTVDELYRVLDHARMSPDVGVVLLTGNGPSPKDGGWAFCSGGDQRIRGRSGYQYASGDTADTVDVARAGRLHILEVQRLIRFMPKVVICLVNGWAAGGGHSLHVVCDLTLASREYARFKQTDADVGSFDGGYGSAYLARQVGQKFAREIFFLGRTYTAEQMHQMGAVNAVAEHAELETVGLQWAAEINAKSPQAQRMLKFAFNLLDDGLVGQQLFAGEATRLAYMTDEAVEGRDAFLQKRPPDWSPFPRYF
# Mtb MbtI inh: inhibitors of Mycobacterium tuberculosis siderophore enzyme MbtI. P9WFX0. purified MbtI enzyme, fluorescence intensity read-out. 100,000 compounds, 0.89% hits. inhibition, %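 (about 17 µg/mL by stock and volumes)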;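 active = above 50% in both replicates, above 80% if mildly self-fluorescent; inactive = the rest, strongly fluorescent compounds included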;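 note: 0% = mean of negative and 100% = mean of positive controls; one replicate is shown; some compounds called inactive have numbers as strong as hits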
# Polio RdRp inh intensity: also measured in Polio RdRp inh; calls as there; % elongation; measured here: total intensity read-out; formula for this scale not given here;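 total fluorescence in place of polarization; lower means less elongation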
# * marks the source's active call; other numbers are inactive results; i = inactive; nt = not tested or not shown; & = joins results of further samples. An unsorted share of the library. About 1.7% of those tested had a hit in this group.
structure,Mtb MbtI inh,Polio RdRp inh intensity,Polio RdRp inh,MenB inh
N#CC1=C(N)SC(N)=C(C#N)C1,71,146,106,i
O=C(Cn1c2c(c(-c3ccccc3Cl)cc1=O)CCC2)NCC1CCCO1 (configuration not stated),64,101,101,-21
C#C[C@]1(OC(C)=O)CCC2C3CCC4=CC(=O)CC[C@@H]4C3CC[C@@]21C (some centres not stated),-13,101,99,8
CN(Cc1ccccc1)C(=O)c1cc(-c2ccco2)nc2ccccc12,106,100,101,nt
O=C(Nc1ccccc1)N1CCCc2ccccc21,-3,103,101,5
CCOC(=O)C1C(=O)C=C(c2cccc(OC)c2)CC1c1ccc(CC)cc1 (configuration not stated),2,101,101,-28
O=C1C2c3ccccc3CCN2C(=O)CN1CCc1ccccc1 (configuration not stated),-10,100,105,-63
Cc1nn(-c2ccccc2)c2nc3ccccc3c(N3CCOCC3)c12,-9,94,96,7
CN(Cc1cccs1)C(=O)c1cc(Br)c(Br)s1,12,105,104,-7
CN(C)S(=O)(=O)N1CCN(c2ccccc2)CC1,nt,113,107,-3
O=C(COC(=O)C1CC2C=CC1C2)c1ccccc1 (configuration not stated),-1,103,100,nt
O=C(CS(=O)(=O)c1cn(Cc2ccc(Cl)cc2)c2ccccc12)Nc1ccccc1,-8,104,100,-15
O=C(CSc1cc(Cl)ccc1Cl)NCCN1CCOCC1,-9,108,103,nt
CCCC(O)=NS(=O)(=O)c1ccc(N=NN(C)C)cc1,38,102,102,-14
C=CCn1c(=O)[nH]c2ccccc21,26,97,100,-18
Cc1ccc(CC(C#N)Sc2nnc(C)n2Cc2ccccc2)cc1 (configuration not stated),-2,111,107,-6
Oc1ccc(/C=N/NC(=S)Nc2ccc(Cl)cc2Cl)c(O)c1O,82,102,113,-39
C=CCc1cc(OC)ccc1O,11,105,103,8
CC(C)C(NC(=O)c1ccccc1)c1nnc(SCC(=O)Nc2nccs2)n1C (configuration not stated),-3,103,104,-19
c1ccc2c(c1)ncn2CC1CCCCC1,-11,103,101,1
CCNc1nc(NCC)n2c(SCC(=O)N(CC)C3CCCCC3)nnc2n1,-8,110,106,-17
CC(C)C(=O)Nc1cccc2nsnc12,nt,110,103,1
CCC(=O)Nc1ccc(NC(=O)CC)cc1,-14,102,99,4
CCc1c(C)[nH]c(N)nc1=S,nt,104,93,-47
O=C(CSCc1ccco1)c1ccc(F)cc1,2,101,105,-3
CSC1=C(C#N)C(c2ccccc2Cl)C(C(=O)c2ccccc2)=C(C)N1 (configuration not stated),1,105,102,nt
O=c1c2sccc2[nH]c(=S)n1Cc1ccccc1,26,93,100,-27
COC(=O)Cn1c(=NC(=O)C2CC2)sc2c(C)cc(C)cc21,-13,112,96,-10
c1ccc2c(c1)c(NCC1CCCO1)nn1nnnc21 (configuration not stated),-5,101,100,9
O=C(OCC(=O)N1CCN(C(=O)c2ccco2)CC1)c1ccc2c(=O)n3c(nc2c1)CCC3,17,102,99,-7
CCCN1CCC(NC(=S)Nc2ccc(C(=O)OCC)cc2)CC1,-4,100,102,-4
O=C(Nc1ccc2c(c1)OC1(CCCC1)O2)C1CC(=O)N(C2CCCC2)C1 (configuration not stated),-5,105,96,-2
O=C1Oc2ccccc2C(=O)/C1=C\N1CCCc2ccccc21,86,101,100,-47
CC1=NN(CCC#N)C(=O)/C1=C\c1ccc(N)cc1,0,97,105,-188
Cc1cc2c(cc1C)NC(=O)CC(c1ccccc1O)=N2,-4,94,101,-17
CC1=C(C(N)=O)C(c2ccccc2Cl)N2C(=O)CSC2=N1 (configuration not stated),8,nt,nt,-18
N#Cc1c(F)cccc1N(Cc1cccnc1)C(=S)Nc1ccc(Cl)c(Cl)c1,-6,108,107,-21
Cc1ccc(S(=O)(=O)Cc2ccc(C(=O)O)o2)cc1,46,99,99,15
O=C(COc1ccc2ccc(=O)oc2c1)NC(=O)Nc1ccc2c(c1)OCCO2,3,109,102,-15
CC(CNc1ccccc1)C(=Nc1ccccc1)Nc1ccccc1 (configuration not stated),-4,105,105,-18
N#Cc1cc2c(nc1SCc1ccncc1)CCC2,51,102,100,7
Cc1cccc(N2CCN(S(=O)(=O)c3ccc4c(c3)n(C)c(=O)n4C)CC2)c1C,3,96,102,-24
Nc1nc2n(n1)C(c1ccco1)CC(c1ccc(F)cc1)N2 (configuration not stated),-30,102,103,-22
c1ccc2c(Nc3nc(-n4ccnc4)nc(-n4ccnc4)n3)cccc2c1,nt,109,102,-6
O=C(NCCc1ccccn1)c1cccc(S(=O)(=O)N2CCc3ccccc32)c1,5,103,106,6
O=C1CSC(=S)N1/N=C/c1cccs1,34,102,99,-97
Cn1c(=O)c2cc(S(=O)(=O)NC(C(=O)N3CCc4ccccc43)c3ccccc3)ccc2n(C)c1=O (configuration not stated),-1,104,101,13
CCc1cc2cc(C(=O)N3CCN(c4ccccc4)CC3)sc2s1,-1,98,100,nt
Cc1cc(NC(=O)c2ccc(Cl)cc2)c(C(C)C)c(S(=O)(=O)c2ccccc2)c1O,nt,113,112,-25
CSc1nnc(C2CCCN2C(=O)OC(C)(C)C)o1 (configuration not stated),3,99,101,-14
N#C/C(=C/c1ccc(Sc2ccccc2)o1)c1cccc(F)c1,-10,99,100,-50
CC1CCN(C(=O)Cn2cc(SCC(=O)NC(C)(C)C)c3ccccc32)CC1,-2,99,98,-29
CCOc1ccc(C(C)NCCO)cc1 (configuration not stated),-1,101,100,-4
CCc1c(C)c(C#N)c2nc3ccccc3n2c1NCC(C)C,3,99,97,4
O=c1[nH]nc(SCc2cc(=O)n3cc(Br)ccc3n2)n1Cc1ccccc1,4,104,101,-14
Cc1[nH]c2ccccc2c1C(=O)CSC(=S)N1CCN(C)CC1,7,103,99,-9

# Further results follow:
structure,Mtb MbtI inh,Polio RdRp inh intensity,Polio RdRp inh,MenB inh
CCn1c(SCc2nc3ccccc3c(=O)[nH]2)nnc1-c1ccc(OC)c(OC)c1,-5,99,100,-24
O=C(CCSCc1cnn(-c2ccccc2)c1-n1cccc1)NCc1ccco1,9,99,101,5
Oc1c(I)cc(Cl)c2cccnc12,-10&-19,108&107,101&98,-77&4
NC(=O)CSc1cn(Cc2ccc(F)cc2)c2ccccc12,4,102,101,-30
Cc1ccc(-c2cnc3ccccc3n2)cc1,89,102,99,-68
COc1ccc(Cc2nnc(SC)[nH]c2=O)cc1,11,95,102,4
CCOC(=O)c1ccc2nc(C(F)(F)F)nc(NCCCO)c2c1,117,104,101,-6
Cc1ccc(C(=O)n2nc(-c3cccnc3)nc2N)cc1,1,102,101,-20
Cc1ccccc1Cn1ccc(NC(=O)c2cc3ncc(Br)cn3n2)n1,-10,101,102,-33
CC1(C)CC2=NNC(c3ccccc3)C2CO1 (configuration not stated),-11,119,110,-56
Cc1cccc(CCNC(=O)c2ncoc2-c2cccs2)c1,121,103,100,-19
COc1cc(-c2nnc(SCC(=O)c3cc4c5c(c3)CC(=O)N5CCC4)o2)cc(OC)c1OC,-2,108,98,-1
O=C(c1cccs1)N1c2ccccc2Sc2ccccc21,10,99,102,-7
CC(=O)N1c2ccc(S(=O)(=O)N3CCc4ccccc43)cc2CC1C (configuration not stated),-3,102,101,-21
CC(C)CN(Cc1nnc(-c2ccccc2)o1)CC(C)C,-6,101,100,-12
CN1CCC2(CCN(Cc3ccccc3)C2)C1 (configuration not stated),nt,107,104,-11
O=C(Nc1nn2cc(-c3ccccc3)nc2s1)c1ccccc1,15,101,99,-34
On1c(-c2ccccc2)cc2ccccc21,110,106,103,-20
O=C(CCC1=NS(=O)(=O)c2ccc(C(F)(F)F)cc2N1)NCCc1ccco1,-25,102,101,-10
O=C1c2ccccc2C(Nc2ccccc2)N1Cc1ccc2c(c1)OCO2 (configuration not stated),5,102,100,-9
CN(C)N1C(=O)CC(N2CCCC2)C1=O (configuration not stated),4,102,101,9
CCOC(=O)c1oc2ccc(OCC)cc2c1C,-21,109,111,4
CCOc1ccc2nc(NC(=O)C3(S(=O)(=O)c4ccc(C)cc4)CC3)sc2c1,9,102,98,-10
CCc1ccc2ncc(C(=O)c3ccccc3)c(N3CCOCC3)c2c1,-10,109,103,-18
O=c1ccc(=O)n(CN2CCC(Cc3ccccc3)CC2)[nH]1,-219,102,100,-8
COc1cc2cc(Oc3ccc4ccc(=O)oc4c3)c(=O)oc2cc1OC(C)=O,nt,103,105,-15
CN(c1ccc(F)cc1)S(=O)(=O)c1ccc(Cl)c(C(=O)NCc2ccco2)c1,-7,106,104,-50
O=C(Oc1ccc2cc(Br)ccc2c1)c1cccnc1Cl,-6,107,101,nt
Oc1ccc2ccccc2c1C=NCc1cn2ccccc2n1,-126,108,104,nt
COc1ccc2cnn(-c3ccccc3)c(=O)c2c1OC,nt,111,109,-15
O=c1c2cn[nH]c2nc2ccccn12,116,104,97,3
CCN(CC)S(=O)(=O)c1ccc2[nH]cc(C(=O)N3CCC(C)CC3)c(=O)c2c1,-195,103,100,10
COc1ccccc1N1CCN(C(=O)CCCCCn2c(=S)[nH]c3cc4c(cc3c2=O)OCO4)CC1,-16,104,102,-4
CC1(C)CC(=O)c2sc(NC(=O)c3ccc(S(C)(=O)=O)cc3)nc2C1,-4,107,104,-29
NC(=O)NCC(=O)NCC1COc2ccccc2O1 (configuration not stated),3,106,102,-19
COC(=O)c1ccc(OC)c(Br)c1,nt,108,109,-15
Cc1cc(C)n(CC(O)CN2c3ccccc3Sc3ccccc32)n1 (configuration not stated),-7,106,102,-2
CCN1C=NS(=O)(=O)c2ccc(C)cc21,-27,103,101,5
CN(C)C(=O)c1ccccc1-c1ccccc1C(=O)O,-9,105,99,19
Clc1ccc(-n2ncc3c(Cl)ncnc32)cc1,38,103,100,-9
Cn1cccc1/C=N/NC(=O)CSc1nnc(-c2ccccc2)n1-c1ccccc1,-1,104,101,-22
CN(C)c1ccc(/C=C/C(O)=C2/C(=O)NC3(C)CC2c2ccccc2O3)cc1 (configuration not stated),-2,158,123,-49
O=C(NCCCN1CCCC1)c1cc(-c2ccncc2)nc2ccccc12,11,99,103,-13
N#Cc1ccc(COc2nncc(Cl)c2Cl)cc1,-9,91,96,nt
CCN(Cc1ccccc1)Cc1cccnc1,2,104,102,15
CCCOc1ccc(C2C3=C(CCCC3=O)OC3=C2C(=O)CCC3)cc1OCC,9,109,102,0
COc1ccc2c(C)nc(NC3=NCC(=O)N3)nc2c1,i,100,97,-19
CN(C(=O)CSc1nnc(Cc2ccccc2)o1)C1CCCc2ccccc21 (configuration not stated),4,108,98,-17
N#Cc1c(C(F)(F)F)cc(=O)[nH]c1SCc1nc(-c2ccc(F)cc2)no1,-127,99,98,-34

# Structures shown so far that contain an NH in an aromatic ring (twelve):
structure,Mtb MbtI inh,Polio RdRp inh intensity,Polio RdRp inh,MenB inh
C=CCn1c(=O)[nH]c2ccccc21,26,97,100,-18
CCc1c(C)[nH]c(N)nc1=S,nt,104,93,-47
O=c1c2sccc2[nH]c(=S)n1Cc1ccccc1,26,93,100,-27
O=c1[nH]nc(SCc2cc(=O)n3cc(Br)ccc3n2)n1Cc1ccccc1,4,104,101,-14
Cc1[nH]c2ccccc2c1C(=O)CSC(=S)N1CCN(C)CC1,7,103,99,-9
CCn1c(SCc2nc3ccccc3c(=O)[nH]2)nnc1-c1ccc(OC)c(OC)c1,-5,99,100,-24
COc1ccc(Cc2nnc(SC)[nH]c2=O)cc1,11,95,102,4
O=c1ccc(=O)n(CN2CCC(Cc3ccccc3)CC2)[nH]1,-219,102,100,-8
O=c1c2cn[nH]c2nc2ccccn12,116,104,97,3
CCN(CC)S(=O)(=O)c1ccc2[nH]cc(C(=O)N3CCC(C)CC3)c(=O)c2c1,-195,103,100,10
COc1ccccc1N1CCN(C(=O)CCCCCn2c(=S)[nH]c3cc4c(cc3c2=O)OCO4)CC1,-16,104,102,-4
N#Cc1c(C(F)(F)F)cc(=O)[nH]c1SCc1nc(-c2ccc(F)cc2)no1,-127,99,98,-34
